Screens deposited in PubChem BioAssay by ICCB-Longwood Screening Facility, Harvard Medical School.
AID504770 = growth inhibitors of E. coli YBA685 in a screen for V. cholerae RctB (chromosome II replication) inhibitors; E. coli YBA685 rctB-dependent plasmid, OD600 growth, 3 h; stronger effect = lower value; z-score (concentration not given with the values); 0.27% of 130,000 active;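 active = z-score under -2 on both plates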;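 also: wells of about 30 µL received 100 nL stock; score is relative to mean and SD of the test wells; the first replicate is given; strong numbers were not always called active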
Ba CapD inh = inhibitors of Bacillus anthracis CapD enzyme | purified CapD enzyme, fluorescence intensity read-out; stronger effect = lower value; some hits fall short of the stated cut | z-score (test concentration not listed) | 0.23% of 140,000 active;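 active = z-score under -4 in either of two replicates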;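 also: stock transfer was 100 nL into about 40 µL; score is relative to mean and spread of the plate; one replicate is shown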
* hit, by the source's call; i = inactive; x = no result given.

SMILES | AID504770 | Ba CapD inh
FC(F)(F)c1cc(N=NN2CCOCC2)cc(C(F)(F)F)c1 | x | -0.51
COC(=O)c1c(C)ncc2c1COC(C)OC2 (centres undefined) | 0.3 | 0.12
CCc1cccc(NC(=O)CCCn2c(=O)[nH]c3ccsc3c2=O)c1 | -0.05 | 56
COc1ccc(/C(O)=C2\C(=O)C(=O)N(c3nnc(C)s3)C2c2cccc(Oc3ccccc3)c2)cc1 (centres undefined) | x | -0.66
CCN1C(=O)C(O)(CC(=O)c2ccc(F)cc2)c2ccccc21 (centres undefined) | -0.25 | 0.05
Cc1nc(-c2ccccc2)sc1C(=O)NNC(=O)OCCOc1ccc2ccccc2c1 | x | 2.6
FC(F)(F)c1ccc(-c2nc(-c3ccncc3)ncc2-c2ccncn2)cc1 | x | -0.42
O=C(O)C1(c2ccccc2)CCN(Cc2ccccc2)CC1 | 0.5 | 0.09
COc1ccc(S(=O)(=O)N(CCSCc2cc3cccc4c3n(c2=O)CCC4)Cc2ccccn2)cc1 | x | 2.8
CCOC(=O)c1oc2ccccc2c1NC(=S)NC(=O)CN1C(=O)CCC1=O | 0.45 | x
Cc1ccccc1NC(=O)Nc1ccon1 | -1 | -0.4
C=CC(C)N1C(=O)c2ccccc2C1=O (centres undefined) | x | -0.62
CCCCCn1cc2c(c1-c1ccccc1Cl)c(=O)n(C)c(=O)n2C | -0.35 | 17
CC(C)c1ccc(C2C=C(c3ccccc3)Nc3ncnn32)cc1 (centres undefined) | -0.75 | x
Nc1cccc(F)c1CNCC(O)COc1ccc(Cl)c(Cl)c1 (centres undefined) | -0.25 | -0.69
Cn1c(C(=O)NCc2ccco2)cc2ccccc21 | x | -0.17
CCN(Cc1ccccc1)C(=O)c1ccc2c(c1)NC(=O)c1ccccc1S2 | -0.8 | -1.1
CCOC(=O)C(C)On1c(-c2ccc(Cl)cc2)nc2ccc([N+](=O)[O-])cc21 (centres undefined) | x | -0.48
O=C(Oc1ccccc1N1CCCCC1)C1CCN(c2nccc(C(F)(F)F)n2)CC1 | 0.5 | 1.3
COc1ccccc1C(=O)N1CCCC1COC(=O)NCc1ccc(-c2csnn2)cc1 (centres undefined) | x | -0.4
COc1ccc(-c2cc(C(F)(F)F)nc(S(=O)(=O)CCCC(=O)Nc3ccc4c(c3)OCO4)n2)cc1OC | -0.45 | 4.5
CCOC(=O)c1sc2nc(C)n(CC(=O)Nc3ccc(OC)cc3OC)c(=O)c2c1C | x | 0.82
O=C(c1cc2ccccc2oc1=O)N(Cc1ccco1)C1CCS(=O)(=O)C1 (centres undefined) | 0.4 | 0.72
Oc1ccc2cc(-c3nc(-c4ccc(Br)cc4)cs3)c(=Nc3ccc(Br)cc3)oc2c1 | x | -0.52
O=C1CC(c2cccc(I)c2)c2ccc3ccccc3c2N1 (centres undefined) | x | 1.3

6 records picked at random from the list so far, as already listed:
SMILES | AID504770 | Ba CapD inh
CCc1cccc(NC(=O)CCCn2c(=O)[nH]c3ccsc3c2=O)c1 | -0.05 | 56
CCOC(=O)c1oc2ccccc2c1NC(=S)NC(=O)CN1C(=O)CCC1=O | 0.45 | x
COc1ccc(/C(O)=C2\C(=O)C(=O)N(c3nnc(C)s3)C2c2cccc(Oc3ccccc3)c2)cc1 (centres undefined) | x | -0.66
O=C(Oc1ccccc1N1CCCCC1)C1CCN(c2nccc(C(F)(F)F)n2)CC1 | 0.5 | 1.3
O=C1CC(c2cccc(I)c2)c2ccc3ccccc3c2N1 (centres undefined) | x | 1.3
CCOC(=O)c1sc2nc(C)n(CC(=O)Nc3ccc(OC)cc3OC)c(=O)c2c1C | x | 0.82

Going on with the list.
SMILES | AID504770 | Ba CapD inh
CCOC(=O)C1=C(C)N=c2s/c(=C\c3ccc(-c4cccc(C(=O)O)c4)o3)c(=O)n2C1c1cccs1 (centres undefined) | x | 0.04
CC1=NN(C(=O)C2CCCCC2)C(O)(c2ccccc2)C1 (centres undefined) | -1.1 | -0.51
Cc1ccc(NC(=O)C23CCC(C2)C(C)(C)C3=O)c(C)c1 (centres undefined) | 1.1 | -0.25
C=CCn1c(SCC(=O)c2ccc(C)cc2)nc2sc(CC)cc2c1=O | -0.05 | -0.085
Clc1ccc(C2C3CC=CC3c3cc(Cl)cc4c3N2CC2CC=CC42)cc1 (centres undefined) | x | 0.38
CC1CCCN(c2cc(N(C)C)c([N+](=O)[O-])cc2F)C1 (centres undefined) | x | -1.3
O=C(COc1ccc2c(c1)CCC2)NN1CCOCC1 | 0 | 0.58
CCC(Sc1nc2ccccc2[nH]1)C(=O)Nc1ccc(S(N)(=O)=O)cc1 (centres undefined) | x | -0.39
CCOC(=O)c1c(C)n(C)c2ccc(O)cc12 | 0 | 0.92
CC(C)C(Nc1ccc(C(F)(F)F)cn1)C(=O)O (centres undefined) | -0.85 | x
CCOC(=O)C1CC(=O)OC12CCCCC2 (centres undefined) | -0.5 | 0.38
Cc1cccc(/C=N/NC(=O)c2ccccc2CCc2ccccc2)n1 | x | -1.1
CCOC(=O)c1oc2ccccc2c1CN1CC(C)OC(C)C1 (centres undefined) | -1 | x
COc1ccc(C(=O)NCCSc2ccccn2)cc1 | -1 | x
COc1cc(OC)nc(C(=O)NCc2cccc(C(F)(F)F)c2)n1 | x | -0.035
O=c1oc(-c2ccc(Cl)cc2Cl)nc2ccc(I)cc12 | x | -0.21
Cc1c(C(=O)O)oc2ccc(S(=O)(=O)NCc3ccccc3)cc12 | 0.8 | 0.35
CN1C(=O)N(C)C2NC(=O)NNC21 (centres undefined) | x | -0.15
O=C(NC1CCCCC1)c1cc(-c2ccco2)on1 | -0.2 | -4*
Cc1cccc(N=C2SCCN2C)c1C | -1 | x
CC1(C(=O)NC2CCCCCCC2)Cc2ccccc2C(=O)N1CCCN1CCOCC1 (centres undefined) | 0.25 | -0.09
CCOC(=O)c1c(CSc2ccc(C)cc2)n(C)c2cc(Br)c(OC(C)=O)cc12 | x | -0.8
CCOC(=O)CSC1C(=O)Nc2ccccc2N=C1c1ccccc1 (centres undefined) | -0.4 | -1.2
O=C(Nc1nc2ccccc2s1)c1ccc(S(=O)(=O)N2CCOCC2)cc1 | 1.3 | 0.76
CCCN(CCC)C(=O)Cn1ncn2c(cc3ccccc32)c1=O | 4.1 | 2.5

Three structures out of the list, arranged by count of non-hydrogen atoms, descending:
SMILES | AID504770 | Ba CapD inh
CCCN(CCC)C(=O)Cn1ncn2c(cc3ccccc32)c1=O | 4.1 | 2.5
CCOC(=O)c1oc2ccccc2c1CN1CC(C)OC(C)C1 (centres undefined) | -1 | x
CC1=NN(C(=O)C2CCCCC2)C(O)(c2ccccc2)C1 (centres undefined) | -1.1 | -0.51

(further entries)
SMILES | AID504770 | Ba CapD inh
Nc1cc(C(Cl)=C(Cl)Cl)c(S(N)(=O)=O)cc1S(N)(=O)=O | x | -0.62
CCC(=O)Nc1c(C#N)c2nc3ccccc3nc2n1CCc1ccccc1 | -0.35 | x
CCCc1oc2ccc(NS(=O)(=O)c3ccc(Br)cc3)cc2c1C(=O)OCC | x | -0.8
Cc1ccc(OC(=O)c2sc3ncn(C)c(=O)c3c2C)cc1 | -1.6 | 0.12
O=C(OC1CCOC1=O)c1ccc(Cl)cc1 (centres undefined) | 1.8 | -0.17
C=C1SC(Nc2ccc(OC)cc2OC)=NC1(C)C | -0.75 | -0.04
CN(C(=O)Cn1c(=O)cnc2ccccc21)C1CCS(=O)(=O)C1 (centres undefined) | -0.6 | x
COc1ccc(-c2cc(C(F)(F)F)nc(N3CCc4ccccc4C3)n2)cc1OC | 2 | -0.69
CCCCS(=O)(=O)c1nc2c(cc1C#N)CCCC2 | -2 | 0.17
CCCC1CC(CSc2nc3ccccc3[nH]2)OC1=O (centres undefined) | 0.15 | -0.41
COC(=O)c1ccc(-c2nc(-c3ccccc3)no2)cc1 | -0.15 | 0.08
O=C(O)CCSc1nnnn1-c1ccccc1 | -0.05 | x
CCOC(=O)Nc1cc(C)ccc1OC | -0.2 | 0.96
O=S(=O)(c1ccccc1)N(C1CCNCC1)C1CC1 | x | -0.45
CSc1nnc(CCNS(=O)(=O)c2ccc(Br)cc2)n1C | -0.2 | x
CCOc1ccc(NC(=S)N2CCn3cccc3C2c2ccc(OC)cc2)cc1 (centres undefined) | -0.3 | -0.12
CS(=O)(=O)N(CC(=O)Nc1ccccc1)C1CCCCC1 | -0.05 | x
Cn1nc(-c2ccccc2)c(CSc2ccc(Br)cc2)c1Cl | x | -0.55
CCC(CC)C(=O)Nc1cccc(C(=O)Nc2ccc3c(c2)OCCO3)c1 | -0.6 | -0.12
Cc1ccc(COn2c(-c3ccc(Cl)cc3)nc3ccc([N+](=O)[O-])cc32)cc1 | x | -0.16
CC1C=CCC2C(=O)N(c3cccc(C(=O)OCC(=O)c4ccc(Cl)c([N+](=O)[O-])c4)c3)C(=O)C12 (centres undefined) | x | 0.045
COc1ccc(NC(=O)C2C(=O)N(C)C3(C)CC2c2ccccc2O3)cc1 (centres undefined) | 1.9 | -0.65
O=C(OCc1ccc(Cl)cc1Cl)C(O)c1ccccc1 (centres undefined) | -0.9 | 0.42
COc1ccc(C(=O)CSc2nccc(=O)[nH]2)cc1 | -0.55 | x
COC(=O)C(CSC1=NCCS1)NC(=O)OCc1ccccc1 (centres undefined) | x | 0.39

Compound profiles, as listed above.
`Cc1ccc(COn2c(-c3ccc(Cl)cc3)nc3ccc([N+](=O)[O-])cc32)cc1` is listed with AID504770: x; Ba CapD inh: -0.16
`CCCC1CC(CSc2nc3ccccc3[nH]2)OC1=O` (centres undefined) is listed with AID504770: 0.15; Ba CapD inh: -0.41
`COc1ccc(NC(=O)C2C(=O)N(C)C3(C)CC2c2ccccc2O3)cc1` (centres undefined) is listed with AID504770: 1.9; Ba CapD inh: -0.65

Of the compounds above, these have bromine.
SMILES | AID504770 | Ba CapD inh
Oc1ccc2cc(-c3nc(-c4ccc(Br)cc4)cs3)c(=Nc3ccc(Br)cc3)oc2c1 | x | -0.52
CCOC(=O)c1c(CSc2ccc(C)cc2)n(C)c2cc(Br)c(OC(C)=O)cc12 | x | -0.8
CCCc1oc2ccc(NS(=O)(=O)c3ccc(Br)cc3)cc2c1C(=O)OCC | x | -0.8
CSc1nnc(CCNS(=O)(=O)c2ccc(Br)cc2)n1C | -0.2 | x
Cn1nc(-c2ccccc2)c(CSc2ccc(Br)cc2)c1Cl | x | -0.55

Going on with the list.
SMILES | AID504770 | Ba CapD inh
CCOC(=O)CCc1c(CC(=O)OCC)c[nH]c1/C=N/O | -0.25 | -10*
CCOc1ccc(C2(c3ccccc3Cl)CCCCC2)cc1 | x | -0.42
CCOc1nc(N2CCCCC2)nc(-n2cc(-c3ccccc3)nn2)n1 | 0.45 | -0.7
N#Cc1c(NC(=O)c2cc(C3CC3)on2)sc2c1CCC2 | 1.6 | -1.8
Cc1cccn2cc(COc3ccc(Cl)cc3)nc12 | -0.65 | i
O=C(c1ccc(Br)cc1)c1cc2cc(Cl)cc(Cl)c2o1 | x | -0.47
O=C1CCCC2=C1C(c1ccc(OCc3ccccc3F)cc1)C1=C(CCCC1=O)O2 | x | -0.31
CN=C1S/C(=C\c2sccc2C)C(=O)N1C | 0.7 | -0.55
O=C(COc1ccc2c3c(c(=O)oc2c1)CCC3)c1ccccc1 | 0.05 | 1.5
COc1ccc(Cn2c(=O)[nH]c3cc(C(=O)O)ccc3c2=O)cc1 | 1.4 | 3.1
COc1ccc(CCNC(C)=O)cc1 | -0.75 | 0.015
O=C(O)C1Cc2ccccc2CN1C(=O)COc1ccc(Cl)cc1Cl (centres undefined) | -0.65 | x
CCCc1ccc(/C=N/NC(=O)c2ccc(OC)cc2)cc1 | x | 0.35
CC(C)(CC(=O)O)Cc1nc(-c2ccc(Cl)cc2)no1 | -0.6 | -0.38
O=C(O)CSc1ccc2nnc(-c3ccc(F)cc3)n2n1 | 2 | -2
CC(=O)NCCc1ccc(S(=O)(=O)N2CCCCC2)cc1 | 0.1 | 0.55
CC(=O)c1cc(F)c(Cl)cc1Cl | x | 0.6
O=c1[nH]c(=S)[nH]c2c1C(C1CCCCC1)Cc1ccccc1-2 (centres undefined) | -0.65 | 2.3
O=C(OCc1cc(=O)n2c(n1)sc1ccccc12)C1=NN(c2ccccc2)C(=O)CC1 | -0.1 | x
COc1ccc(S(=O)(=O)N(C)c2ccc(C(=O)N3CCCCC3)cc2)cc1 | -0.65 | -0.28
COc1ccccc1CC(=O)N1CCCc2ccccc21 | x | -0.25
CC(COc1ccc2c(c1)OCO2)NC(=O)c1cn(-c2ccc(F)cc2)nn1 (centres undefined) | 0.95 | -0.31
CCn1c(C)nc2cc(C#N)ccc21 | 0.6 | x
NC(=O)C1CCN(Cn2nc(-c3ccccc3)n(-c3ccccc3)c2=S)CC1 | x | 0.34
CC(OC(=O)c1ccc(-n2cnnn2)cc1)C(=O)NC1CCCc2ccccc21 (centres undefined) | -0.5 | x
Following part
SMILES | AID504770 | Ba CapD inh
COC(=O)c1ccc(NS(C)(=O)=O)cc1 | -0.9 | 0.39
CCOn1c(=O)c(=O)n(OC)c2ccccc21 | -0.05 | -0.27
CCOc1ccc(S(=O)(=O)N(C)CC(=O)NCc2ccco2)cc1Cl | 2.2 | x
CC(=O)N1c2ccc(S(=O)(=O)NC(CC(=O)O)c3ccccc3)cc2CC1C (centres undefined) | -0.25 | 0.66
CCSCCOC(=O)C1=C(C)NC(=O)NC1c1ccc(OCc2ccccc2)cc1 (centres undefined) | x | -0.86
CNC(=S)N1N=C(c2ccc(OC)cc2)CC1c1ccc(N(C)C)cc1 (centres undefined) | x | -1.4
Fc1ccc(-c2nnc(CN3CCCC3c3nc4ccccc4s3)o2)cc1 (centres undefined) | -0.85 | x
COc1ccc2c(c1)C=C(C(=O)NCc1cccc(C(F)(F)F)c1)CO2 | x | -0.41
N/C(=N\O)c1ccc(O)cc1 | -0.35 | x
Cc1ccc2c(c1)-c1c(ssc1=Nc1cccc(Cl)c1)C(C)(C)N2C | x | -0.3
COc1ccc(N2C(=O)CC(=O)NC2=S)cc1 | 0.25 | -0.9
O=C(Nc1cccc2c1C(=O)NC2=O)c1ccc(S(=O)(=O)N2CCOCC2)cc1 | 1.8 | x
COc1ccc(S(=O)(=O)Nc2cccc3cc(C(=O)NCCN4CCOCC4)[nH]c23)cc1 | x | -0.015

Rows were taken by chance; about 0.37% have a hit in one of these screens.
